Ab BasE inh: BasE siderophore biosynthesis inhibition; purified BasE, fluorescence polarization binding displacement; inhibition, % (concentration not given with the values); actives 0.1% (n = 84,000);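 active = both replicates above 25% with normal brightness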;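 also: 0% = negative plate control signal and 100% = positive plate control signal; stock transfer was 100 nL into about 30 µL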
KSHV LANA nucl: LANA-nucleosome interaction inhibition | actives 0.3% (n = 51,000) | z-score (test concentration not listed) | FITC-LANA1-23 / chicken nucleosome fluorescence polarization; hits give low values;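 active = both repeat wells score below -2 in polarization z-score versus plate sample wells, excluding overly bright wells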;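 also: 100 nL library stock added to about 30 µL; numbers are from one replicate; some results filed as inactive read as strong as hits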
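Assay system: FITC-LANA peptide and chicken nucleosomes; input: 240 nM purified chicken nucleosomes (480 nM peptide binding sites), final; also added: 50 nM FITC-LANA1-23 probe; medium: TEN-BT buffer, pH 7.5; doses: pin-transferred compound, 100 nL; times: 10–45 min, room temperature; technique: fluorescence polarization; replication: duplicates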
The depositor's hits bear a star; . = not tested or not shown; & = joins results of further samples.

compound	Ab BasE inh	KSHV LANA nucl
CC1(C)Cc2nc(N3CCCC3)c(C#N)cc2CS1	1.9	0.17
CCC(C)N=Cc1c(O)[nH]c(=S)[nH]c1=O (centres undefined)	1.6	-0.22
COc1ccc(-c2nn(CCC#N)cc2C(=O)O)cc1OC	3.0	0.25
CC(C)NC1CCC(C(C)(C)C)CC1 (centres undefined)	-0.8	.
O=S1(=O)CCN(CCc2c[nH]c3ccccc23)CC1	.	-0.48
CC1CC(C)CN(c2cnn(C34CC5CC(CC(C5)C3C(=O)O)C4)c(=O)c2Cl)C1 (centres undefined)	0.5	-0.36
CCOC(=O)C1=CC(=C2C(=O)N(CC)C(=S)N(CC)C2=O)c2ccccc2O1	1.3	.
COc1ccc(CN2CCN(Cc3ccccc3C)CC2)cc1	1.4	.
CCCn1nc2ccccc2c1P(=O)(N1CCOCC1)N1CCOCC1	-1.1	.
O=C(N1CCC2(CC1)OCCO2)C(F)(F)F	-1.8	0.33
CCN(CC)C(=O)c1ccc(NC(=O)Cc2c[nH]c3ccccc23)cc1	1.1	.
CN1CCN(c2ccc(N)cc2)CC1	-0.1	.
CCCC(C)N1C(=O)CC(=O)NC1=S (centres undefined)	5.2	.
CCN1C[C@]2(C)CC[C@H](O)[C@@]34C5C[C@@H]6[C@@H](OC)C[C@@](O)(C5[C@H]6O)[C@@H](CC23)[C@@H]14 (some centres undefined)	-1.6	-0.4
CCC(C)N1CCN(Cc2cc(OC)c(OC)cc2OC)CC1 (centres undefined)	-1.5	1.9

Complete entries as entered above. Order of values: Ab BasE inh | KSHV LANA nucl
Shown for `CC(C)NC1CCC(C(C)(C)C)CC1` (centres undefined) : -0.8 | .
Shown for `CCN(CC)C(=O)c1ccc(NC(=O)Cc2c[nH]c3ccccc23)cc1` : 1.1 | .
Shown for `CCC(C)N=Cc1c(O)[nH]c(=S)[nH]c1=O` (centres undefined) : 1.6 | -0.22

Continuation:
compound	Ab BasE inh	KSHV LANA nucl
CN(C)c1ccc(/C=C2/C(=O)C3CCN2CC3)cc1	1.1	-0.53
CCN(CC)P(=S)(N(CC)CC)N(CC)CC	-0.8	0.4
CCN1CCN(c2nc3ccccc3s2)CC1	-2.3	.
O=C1NC(=O)C2C3C=CC(O3)C12 (centres undefined)	0.4	0.46
O=c1c2ccccc2nc(CN2CCOCC2)n1-c1ccccc1F	-1.2	0.49
CC(Cc1cccs1)NCc1ccccc1 (centres undefined)	-0.3	.
O=C1C2CN3CN(C2)CC1(c1ccccc1)C3	5.4	0.13
COc1ccc(C[C@@H]2NC[C@@H](O)[C@@H]2OC(C)=O)cc1	0.9	0.32
CCN(CC)CC#N	4.8	.
O=C1CCN(C(=O)c2ccc3ccccc3n2)CC1	-1.4	.
O=C(COc1ccc2ccccc2c1)N1CCN(Cc2ccncc2)CC1	-2.5	0.29
CN1C(=O)NC(=O)/C(=C\C=C\c2ccco2)C1=O	0.8	.
CC1C(c2cccs2)=[N+]([O-])C(C)(C(=O)c2ccc(F)cc2)N1O (centres undefined)	3.5	0.24
COc1ccc(CC(=O)Nc2ccc3c(C(F)(F)F)cc(=O)oc3c2)cc1OC	0.2	.
Oc1cc2c(cc1CN1CC=C(c3ccccc3)CC1)OCO2	2.0	.
c1ccc2c(CCNC3=NCCC3)c[nH]c2c1	0.7	.
COc1cccc(CNCCc2c[nH]c3ccccc23)c1	-1.6	.
CCOC(=O)c1cncn1C(C)c1ccccc1 (centres undefined)	-0.6&-1.4	-0.059&0.41&2.6
CC[C@@H](CO)NC(=O)[C@@H]1C=C2c3cccc4[nH]cc(c34)C[C@H]2N(C)C1	-1.1	-0.58&-0.59
O=c1c2ccccc2[se]n1-c1ccccc1	4.2&-0.9	0.5&0.7&-0.58
CC1CCC(NCC(O)c2ccccc2)CC1 (centres undefined)	-3.0	.
C[N+]1(CCC(C(N)=O)(c2ccccc2)c2ccccc2)CCCCC1	.	0.28
O=c1cccc2n1CC1CC2CN(C(=S)NC2Cc3ccccc3C2)C1 (centres undefined)	1.2	0.38
NCCc1ccc(F)cc1	-1.1	.
CCOC(=O)c1[nH]c(C)c(C=C(C#N)C#N)c1C	1.6	-0.11
O=C1c2ccccc2C(=O)N1c1ccc2c(C(F)(F)F)cc(=O)oc2c1	1.8	.
CNCC(C)c1ccccc1 (centres undefined)	-1.0	0.0085
c1ccc(CN2CCN(c3ccccc3)CC2)cc1	1.8	0.056
CSc1ncc(/C=C2/C(=O)NC(=O)N(C3CCCCC3)C2=O)cn1	2.2	0.28
COc1cc2c3cc1Oc1c(OC)c(OC)cc4c1[C@@H](Cc1cccc(c1)Oc1ccc(c(O)c1)C[C@@H]3N(C)CC2)N(C)CC4	4.0	0.77
CN(CC(=O)c1ccccc1Br)C1CCCCC1	1.2	.
CC1(C)CCC(C)(C)c2cc(-c3csc(CC#N)n3)ccc21	-23	.
NCCc1ccc2c(c1)OCO2	-1.5	.
COc1ccc2c(c1OC)CN1CCc3cc4c(cc3C1C2)OCO4 (centres undefined)	0.3	0.0035
O=C(c1cccs1)c1cn(Cc2ccccc2Cl)c2ccccc12	0.3	1.9
O=c1c2ccccc2[nH]c(=S)n1-c1ncn[nH]1	1.3	.
CCCNC(=O)Cn1cnc2sc(C(=O)N3CCC4(CC3)OCCO4)c(C)c2c1=O	1.5	1
Nc1c(C(=O)OC2CCCCC2)c2nc3ccccc3nc2n1Cc1ccco1	0.6	-0.45
CC(C)(C)P(=O)(N1CCOCC1)N1CCOCC1	1.7	.
C/C(O)=C(\C#N)C(=O)Nc1cc(Br)ccc1Br	0.1	-0.89
CC(N)Cc1ccc(O)cc1 (centres undefined)	1.8	0.48
CN1CCN(c2ncnc3nc[nH]c23)CC1	1.2	0.75
OCCN1CCN(Cc2ccccc2)CC1	0.6	-1.5
C#CCSc1nc2ccccc2c(=O)n1-c1ccccc1	0.1	2.1
C1=C(c2ccccc2)CCN(Cc2nnc(-c3ccc4c(c3)OCO4)o2)C1	0.4	-0.45
FC(F)=C(F)CCSc1ncn[nH]1	.	0.28
Cc1cc(Cl)nc(N)n1	3.3	.
CCC1(CC)C(=O)NC(=S)N(C)C1=O	1.7	-0.36
N=c1sccn1Cc1ccccc1	-0.4	.
Nc1ccc(Cl)c(C(F)(F)F)c1	-0.1	0.041
C=C(C)[C@@H]1[C@H]2OC(=O)[C@@H]1[C@]1(O)C[C@H]3O[C@]34C(=O)OC2[C@]14C (some centres undefined)	1.2	0.11
CC12NC(Cc3ccccc31)c1ccccc12 (centres undefined)	.	-0.094
CCC(=O)N1N=C2C3CCN(CC3)C2C1c1ccccc1 (centres undefined)	1.9	-1.2
CC1=CC(=O)C2=C(C)C[C@H](O)[C@@H]3[C@H](OC(=O)[C@@H]3C)[C@@H]12	3.2	0.47
CCOC(=O)C1=C(N)Oc2c(c(C)nn2-c2ccccc2)C12C(=O)N(C)c1ccccc12 (centres undefined)	2.0	-0.94
CCCC[C@H]1C(=O)O[C@H](C)[C@H](NC(=O)c2cccc(NC=O)c2OC)C(=O)O[C@@H](C)[C@@H]1OC(=O)CC(C)C	-0.9	-0.12
NCCc1nnc2ccccn12	0.9	.
Cc1ccc2c(c1)C1CN(C)CCC1N2C(=O)c1cccs1 (centres undefined)	-2.5	.
CC(N)Cn1cccn1 (centres undefined)	-0.6	0.65
CCN(CC)c1ccc(CN(C)CCc2ccc(OC)c(OC)c2)cc1	0.7	0.26

(more compounds)
compound	Ab BasE inh	KSHV LANA nucl
Cc1ccn2c(CN3CCNCC3)c(C)nc2c1	1.9	.
O=C1OCCC1NC1=NCCC1 (centres undefined)	0.6	.
O=C1CCO1	-2.2	-0.42&-0.23
CN(CC1COc2ccccc2O1)c1nc(-c2cccnc2)nc2ccccc12 (centres undefined)	-1.1	.
C=CC1(C)OC(=O)N(c2cc(Cl)cc(Cl)c2)C1=O (centres undefined)	-1.1	1.9
Brc1ccc(C2N3CCCN23)cc1 (centres undefined)	-1.1	-0.36
CN1CC[C@@]2(C)c3cc(O)ccc3N(C)C12 (some centres undefined)	-3.0	-1.2
CCOC(=O)c1c(-n2c(C)cc(/C=C3/C(=O)NC(=O)N(CC)C3=O)c2C)sc2c1CCCC2	5.5	-0.6
CC1(O)C[C@@]23C[C@@H](O)[C@@]4(O)[C@@H](C[C@H](O)C4(C)C)[C@](C)(O)[C@@H]2CCC1[C@H]3O (some centres undefined)	2.4	.
N#CC(C#N)=Cc1ccc([N+](=O)[O-])c(O)c1	5.6	0.16
CCN(CC)C(=O)c1ccc(NC(=O)CSC(C)(C)C)cc1	2.2	.
COc1cc2c(cc1O)C1Cc3ccc(OC)c(O)c3CN1CC2 (centres undefined)	1.3	-0.08
CCOC(=O)C1C(=O)NC23CCCCC2C1c1cc(OC)ccc1O3 (centres undefined)	-2.5	0.22
CN1CCC(N(C)CC2=CCC3CC2C3(C)C)CC1 (centres undefined)	2.6	0.19
CCOC(=O)C1=C(C)NC(C)=C2C(=O)Oc3ccccc3C12 (centres undefined)	1.4	0.3
CCc1ccccc1N1C(=O)CC(=O)NC1=S	5.1	-0.11
c1cncc(CNC2=NCCC2)c1	1.9	.
CCC1(C2=NCCN2)Cc2ccccc2O1 (centres undefined)	.	-0.24
CCOc1cc(C=C2C(=O)N(C)C(=S)N(C)C2=O)ccc1OC(C)C(=O)O (centres undefined)	2.5	0.22
CN(C)P(=NC(=S)c1cccn1C)(N(C)C)N(C)C	1.3	.
O=C(NCC1(N2CCCCC2)CCCCC1)c1ccc2c(=O)n3c(nc2c1)CCCCC3	-1.0	.
CN1CCC2(CC1)CC(NC=O)c1ccccc1O2 (centres undefined)	0.0	0.42
C=C(C)Cc1c(C)nc(SCC(=O)C(C)(C)C)nc1OC(=O)N(C)C	0.2	-0.026
O=C(O)C1C2CCC(O2)C1C(=O)N1CCN(C/C=C/c2ccccc2)CC1 (centres undefined)	2.3	.
O=C1C=C2C(=CCOC2O)O1 (centres undefined)	1.9	0.12
CCCCCCCCCCCCCCCC(=O)OC[C@H](COP(=O)([O-])OCC[N+](C)(C)C)OC(C)=O	-0.2	-0.31
C[C@@]12C[C@H](O)CCN1CCc1ccccc12	5.7	-2.4*
CCC1(c2ccc(N)cc2)CCC(=O)NC1=O (centres undefined)	0.3&3.1	0.33&0.19&0.37&-0.58
C[C@H]1O[C@H](OC2[C@@H](O)[C@@H](O)C(O)[C@H](O)[C@H]2O)[C@@H](N)C[C@@H]1N=C(N)C(=O)O (some centres undefined)	2.5	1.5&-0.089
CO[C@H]1[C@H](O)[C@@H](O[C@H]2CC[C@]3(C=O)C4CC[C@]5(C)[C@@H](C6=CC(=O)OC6)CC[C@]5(O)C4CC[C@@H]3C2)O[C@@H](C)[C@@H]1O (some centres undefined)	1.0	0.35
Clc1ccc(C2CC3CCC2N3)cn1 (centres undefined)	0.0	0.33
CCOC(=O)c1c(C)n(Cc2ccccc2)c2ccc(OCC(O)CN3CCN(CCO)CC3)cc12 (centres undefined)	-2.2	0.62
CCOC(=O)C1C2c3ccccc3C(c3ccccc32)C1C(=O)OCC (centres undefined)	-1.2	.
CC12CNCC(C)(CNC1)C2=O	0.5	-0.48
COc1ccc(CCN(C)Cc2ccccc2C)cc1OC	-6.2	2.3
CC(C)(C)P(=O)(c1ccncc1)N1CCCCCC1 (centres undefined)	2.3	.
CCOC(=O)C1=C(N)Oc2c(c(=O)[nH]c3ccccc23)C12C(=O)Nc1ccccc12 (centres undefined)	-10	-1.8
O=C1NC(=O)C(=Cc2cn(Cc3ccccc3)c3ccccc23)C(=O)N1	3.4	.
COc1ccc(CCN2C(=O)NC(=O)C(CCc3ccncc3)(CCc3ccncc3)C2=O)cc1OC	2.8	1.3
COc1cc2c3c(c1OC)-c1ccccc1CC3N(C)CC2 (centres undefined)	3.3	-0.23
FC(F)(F)c1cccc(N2CCNCC2)c1	.	-0.03
C[C@]12Cc3cn[nH]c3C[C@@H]1CC[C@@H]1[C@@H]2CC[C@@]2(C)[C@H]1CC[C@]2(C)O	.	0.053&-0.5
CN(C)C(=O)Oc1ccnc(SCc2c(F)cccc2Cl)n1	-3.0	.
Cc1ccc(S(=O)(=O)N2CCCCC2)cc1C(=O)Oc1cccc2cccnc12	2.4	.
C=CCOC(=O)C1=C(C)OC(N)=C(C(=O)OC)C12C(=O)Nc1ccccc12 (centres undefined)	1.4	-0.15
Cn1c(=O)n(C)c(=O)n(C)c1=O	2.4	0.15
CN(C)C(=O)Oc1nnc(SCC(=O)c2ccc3c(c2)OCCO3)n1C1CC1	-1.2	0.85
N=C1C(NO)=NC(c2ccccc2)N1O (centres undefined)	0.6	-0.6
COc1cc2c(c(OC)c1OC)-c1ccc(O)c(=O)cc1C(N)CC2 (centres undefined)	0.1	-0.56
COC(=O)[C@@]1(O)C[C@@H]2O[C@@]1(C)n1c3ccccc3c3c4c(c5c6ccccc6n2c5c31)C(=O)NC4	.	-0.68
O=P1(N2CCCCCC2)CC=CC1	-1.1	.
C[C@]12N[C@H](Cc3ccccc31)c1ccccc12	-3.5	-0.059
Nc1ccc2c(c1)Cc1ccccc1-2	-3.3	0.73
CCOC(=O)c1c(C)n(C(C)C)c2ccc(OC(=O)c3ccccc3)cc12	1.8	.
O=C1CCCN1CC#CCN1CCCC1	-1.6	0.12&1.7

Screens as filed in PubChem BioAssay.

Some of the compounds tested, so the mix of outcomes need not match the whole.
